VACV mCherry inh: vaccinia inhibition (mCherry reporter); Vaccinia virus mCherry reporter infection, fluorescence; about a quarter of the inactives have no number; hit rate 0.63% among 310,000; AID 720579; Potency, µM (series often up to 36.5 µM), for the others: at the top dose activity change, negative = inhibition, hits mostly inhibitors; active = well fitted inhibition curve with a large enough effect; inconclusive = small, poorly fitted or top-dose-only effect; inactive = no such curve, though single readings can be large or run the other way; tested in A549 cells; also: nearly all actives have a fitted effect of over 35% in size; inactives centre near -10
Vaccinia Venus: vaccinia inhibition (Venus reporter); Vaccinia virus Venus reporter expression, fluorescence; Potency, µM (titrated, usually from 36.5 µM), inactives show at the top dose activity change, negative = inhibition, actives largely listed as inhibitors; hit rate 0.46% among 330,000; AID 720580; active means well fitted inhibition curve with a large enough effect; inconclusive means small, poorly fitted or top-dose-only effect; inactive means no such curve, though single readings can be large or run the other way; tested in A549 cells; also: nearly all actives have a fitted effect of over 30% in size; inactives centre near -10
An asterisk follows results filed as active; i = inactive; ? = inconclusive; · = not tested or not shown; & = joins results of further samples; [ ] = another dose, or the depositor's remark. % is scaled to controls: 0 for no effect and ±100 for the full control effect; potency is read from the fitted curve at half-maximal effect.

SMILES	VACV mCherry inh	Vaccinia Venus
Cc1ccc([C@@H]2[C@@H]3C(=O)N(C)C(=O)[C@@H]3[C@]3(Cc4ccccc4)C(=O)N(CCO)CC(=O)N23)o1	-11.9%	-5.1%
CCOC(=O)N1CCN(S(=O)(=O)c2ccc(C(=O)N(CCCN(C)C)c3nc4ccc(CC)cc4s3)cc2)CC1	-28.7%	-25.5%
CN(C)C(CNc1ccc(C(F)(F)F)cc1[N+](=O)[O-])c1ccccc1 (stereo not drawn)	-10.3%	2.4%
CCOc1ccccc1NC(=O)CSc1nnc(Cc2ccc(OC)cc2)c(=O)n1N	i	-12.4%
COc1ccc(S(=O)(=O)Nc2ccc3c(c2)C(=O)N([C@@H](C)CO)C[C@H](C)[C@H](CN(C)CC2CC2)O3)cc1	i	-7.9%
CC(=O)Nc1ccc(-c2ccnc(-c3ccc(NC(C)=O)cc3)n2)cc1	-14.1%	-8.0%
CN(CC(O)COCc1cccs1)C1CCCCC1 (stereo not drawn)	-6.7%[1.46 µM]	-10.0%
COc1cc2cc(C(=O)N3CC(COS(C)(=O)=O)c4ccc(O)cc43)[nH]c2c(OC)c1OC (stereo not drawn)	?	35.5µM*
NS(=O)(=O)c1ccc(NC(=S)Nc2ccc(F)c(F)c2)cc1	-4.9%	-3.1%
CCOC(=O)c1ccccc1NC(=O)CSc1nc2ncccc2[nH]1	-3.3%	-0.8%
Cc1ccc(-n2nnnc2-c2nc3ccccc3s2)cc1	-7.1%	2.8%
CCCCOC(=O)CSC1=C(C#N)C(c2cccnc2)C(C(=O)OCC)=C(c2ccccc2)N1 (stereo not drawn)	-20.3%	-12.1%
CC1(C(=O)NC2CCCCC2)CCC(=O)N1CC(F)(F)F (stereo not drawn)	7.0%	-10.0%
Cc1nnsc1C(=O)N/N=C/c1ccc2ccccc2c1O	2.24µM*	?
O=C(Cn1ccnc1)c1ccc(O)c(O)c1	-26.3%	-2.2%
COc1ccc(Nc2nc(C)cc(C)c2C(N)=O)c(OC)c1	-5.3%	-9.7%
CCc1ccc(N2CN=c3s/c(=C\c4ccccc4)c(=O)n3C2)cc1	-10.8%	-10.6%
O=c1cc(CN2CCN(c3ccc(F)cc3)CC2)nc2sccn12	·	-13.5%
CCc1ccccc1NC(=O)CNCc1ccccc1	i	-5.0%
O=S(=O)(/C=C/c1ccccc1)NC1CCCCCCC1	-4.6%	-15.9%
CCCCC(c1nnnn1CC1CCCO1)N1CCN(c2ccccc2)CC1 (stereo not drawn)	-17.6%	-2.6%
CCC(C)NC(=O)Cn1cc2c(n1)CCC(C)C2 (stereo not drawn)	-9.1%	-3.5%
N#Cc1nc(-c2cccs2)oc1NCCc1ccccc1	·	-26.4%
CN(C)S(=O)(=O)c1ccc(N2CCCC2)c(C(=O)OCC(=O)N2CCN(c3ccccc3)CC2)c1	-1.5%	-16.3%
COC(=O)C1=C(c2ccc(OC(F)(F)F)cc2)C[C@@H]2CC[C@H]1N2C(=O)N1CCC(C)CC1	-25.5%	?

The closing six compounds of the part before lead into the next.
SMILES	VACV mCherry inh	Vaccinia Venus
O=S(=O)(/C=C/c1ccccc1)NC1CCCCCCC1	-4.6%	-15.9%
CCCCC(c1nnnn1CC1CCCO1)N1CCN(c2ccccc2)CC1 (stereo not drawn)	-17.6%	-2.6%
CCC(C)NC(=O)Cn1cc2c(n1)CCC(C)C2 (stereo not drawn)	-9.1%	-3.5%
N#Cc1nc(-c2cccs2)oc1NCCc1ccccc1	·	-26.4%
CN(C)S(=O)(=O)c1ccc(N2CCCC2)c(C(=O)OCC(=O)N2CCN(c3ccccc3)CC2)c1	-1.5%	-16.3%
COC(=O)C1=C(c2ccc(OC(F)(F)F)cc2)C[C@@H]2CC[C@H]1N2C(=O)N1CCC(C)CC1	-25.5%	?
COc1ccccc1-c1ccc(Nc2cccc(C(F)(F)F)c2)nn1	·	-4.4%
Cn1c(N)c(C(=O)COC(=O)COc2ccccc2Cl)c(=O)n(C)c1=O	-2.1%	-2.9%
O=C(COc1ccc([N+](=O)[O-])cc1)Nc1cccc2cccnc12	-0.1%	11.2%
CCOC(=O)N1CCN(S(=O)(=O)c2cc(OCC(N)=O)c(C)cc2Cl)CC1	i	-13.0%
CCC1CN(C(=O)NCc2cccc(OC)c2)c2ccccc2O1 (stereo not drawn)	3.5%	-10.6%
COc1cc(C(=O)N2CCN(c3ccc(Nc4ccccc4)nn3)CC2)cc(OC)c1OC	-11.4%	-8.7%
OC(c1cccc(Cl)c1)c1nc(-c2cnc3ccccc3c2)cs1 (stereo not drawn)	39.1%[activator]	0.8%
COC(=O)c1ccccc1NC(=O)Cn1cc(S(=O)(=O)Cc2ccccc2F)c2ccccc21	-12.0%	-8.1%
CCOc1ccc(NC(=O)CSc2nnnn2-c2ccc(C(N)=O)cc2)cc1	-7.5%	-0.9%
CC(C)c1ccccc1OCC(=O)N1CCCCCCC1	-11.8%	-2.0%
CCOC(=O)C1=CSC2=NS(=O)(=O)CCN12	-5.6%	2.6%
CCN(CC)C(=O)c1ccc(NC(=O)CNC(C)c2cccc3ccccc23)cc1 (stereo not drawn)	-17.0%	-14.1%
CCOC(=O)c1cc(-c2ccc(Cl)cc2)nc2c1c(C)nn2CCC#N	i	-11.4%
CCc1nnc(NC(=O)c2ccc(S(=O)(=O)N3CCCCC3C)cc2)s1 (stereo not drawn)	i	-2.3%
Cn1c(SCC(=O)Nc2cccc(F)c2)nc2c(c1=O)SCC2	-1.3%	-16.8%
C=CCNCCOc1cccc(Br)c1	-9.8%	-11.2%
CN(c1ccccc1)S(=O)(=O)c1cccc(C(=O)NC2CCCCC2)c1	14.7%	-12.3%
NNC(=O)c1cccc(COc2cccc(Br)c2)c1	-7.5%	-2.1%
COc1cccc(OC)c1C(=O)NC(C)C12CC3CC(CC(C3)C1)C2 (stereo not drawn)	-16.9%	-8.9%
COc1ccc(-n2c(C)cc(C(=O)Cn3nc(C(=O)O)c4ccccc4c3=O)c2C)cc1	-16.8%	-12.2%
Cc1ccc2nc(NC(=O)c3ccco3)sc2c1	·	?
COc1ccc(NC(=O)CCNC(=O)Cn2cnc3ccccc3c2=O)cc1OC	i	-3.1%
O=[N+]([O-])c1ccc(Cl)cc1P(=O)(O)c1cc(Cl)ccc1[N+](=O)[O-]	i	-14.6%
COC(=O)c1ccc2nc(C3CCCCC3)c(Cc3cccc(F)c3)n2c1	i	-10.1%
O=C(COc1ccccc1F)NCc1ccc(-n2cccc2)cc1	-15.5%	-16.8%

Following part
SMILES	VACV mCherry inh	Vaccinia Venus
Cc1cc2cc(C(c3nnnn3Cc3ccco3)N3CCc4ccccc43)c(=O)[nH]c2cc1C (stereo not drawn)	-24.5%	-16.4%
Cc1ccc(NC(=O)c2ccsc2)cc1NS(C)(=O)=O	-11.9%	-4.2%
Cc1ccccc1Cn1c2ccccc2c2cnn(CC(=O)NCc3ccccn3)c(=O)c21	-12.1%	-13.2%
COCC(=O)N/N=C(\C)CC(=O)NCc1ccco1	i	3.1%
COc1ccc(CNC(=O)CCCSc2ccccc2)cc1	4.6%	-3.2%
COc1ccc(OC)c(C2C(C(N)=O)=C(C)Nc3nc(-c4cccc(Cl)c4)nn32)c1 (stereo not drawn)	-29.2%&-16.2%	-27.9%&-20.2%
COC(=O)CSc1nc2cc3c(cc2cc1C)OCCO3	-11.6%	-6.7%
O=C(Nc1cccc(-c2nn[nH]n2)c1)c1cccs1	-13.8%	-18.2%
Cc1nnc(SCC(=O)NCc2ccccc2)s1	·	-27.4%
Cc1ccc(C)c(N2CCN(c3nc4ccccc4c(=O)n3-c3ccc(Cl)cc3)CC2)c1	-15.7%	-14.3%
Cc1ccc2oc(-c3cccc(NC(=O)Cc4ccc(Cl)cc4)c3)nc2c1	-4.4%	6.3%
CN(C)S(=O)(=O)c1ccc(NCC2COc3ccccc3O2)c([N+](=O)[O-])c1 (stereo not drawn)	?	-17.8%
NC(=O)c1ccc(Nc2nnc(-c3ccc(O)cc3)c3ccccc23)cc1	-5.6%	-11.6%
CCS(=O)(=O)n1nc(NCc2cccc(OC)c2)nc1NCc1cccc(OC)c1	·	?
COc1ccc(OCC(=O)Nc2cc(NC(=O)c3ccco3)ccc2OC)cc1	-4.4%	-5.9%
C/C(CC(=O)NCc1ccccc1)=N\NC(=O)c1cnccn1	-4.4%	-9.7%
O=C(CSc1nc2ccccc2o1)N/N=C/c1ccccc1	-12.0%	-7.4%
O=C(CC(Nc1ccc(F)cc1)C(=O)O)c1ccccc1 (stereo not drawn)	-14.6%	-2.1%
O=C1C2C(c3ccccc3)CC=CC2[C@H](c2ccc3ccccc3c2)N1Cc1ccccc1 (stereo partly drawn)	-4.0%	?
O=C(Nc1ccc(C(=O)N2CCCC2)cc1)c1ccccc1	-0.4%	-1.5%
Cc1cccc([C@@H]2[C@@H]3C(=O)N(Cc4ccccc4)C(=O)[C@@H]3[C@]3(Cc4ccc(Cl)cc4)C(=O)N(c4ccccc4)C(=O)N23)c1	i	-19.3%
CC(O)CNCc1ccccc1C(F)(F)F (stereo not drawn)	-3.6%	-6.3%
CCOC(=O)N1CCN(c2cc(NCCO)c([N+](=O)[O-])c3nonc23)CC1	-12.1%	10.2%
COC(=O)C1=C(C)N=C2SCCC(=O)N2C1c1ccc(OC(=O)c2ccco2)cc1 (stereo not drawn)	-3.7%	-5.8%
COc1ccc(-c2ccccc2)cc1NCc1ccc(OC)c(OC)c1	-12.2%	1.6%

Continued.
SMILES	VACV mCherry inh	Vaccinia Venus
CCCc1nnc(NC(=O)CN2C(=O)c3ccccc3S2(=O)=O)s1	-12.2%	-7.9%
CC1CCN(Cc2c(C(=O)N/N=C/c3ccc(C(C)C)cc3)nnn2-c2nonc2N)CC1	-13.3%	-10.8%
COC(=O)c1ccccc1C(=O)N1CCCC(CNC(=O)c2ccc(F)cc2)C1 (stereo not drawn)	-12.9%	-8.6%
CC(C)(C)c1nnc2sc(SCC(=O)c3ccc4c(c3)OCCO4)nn2c1=O	-8.1%	-24.2%
Cc1cc[n+](C2CCCCC2)cc1	i	43.5%[activator]
O=C(Cn1c(C(F)(F)F)nc2ccccc21)N=Nc1c(O)[nH]c2ccc(Br)cc12	?	?
Cc1nc(NC(=O)CSc2nnnn2Cc2ccccc2)sc1C	i	-3.3%
C=CC(C1=CC(=O)C(OC)=CC1=O)c1ccc(OC)cc1 (stereo not drawn)	-25.3%	-0.5%
CC1=CC2=NC(=O)CC(C)(C(=O)N(CC(=O)NC(C)(C)C)C3CCCC3)N2C=C1 (stereo not drawn)	-8.1%	1.9%
CC(=O)c1c(C)[nH]c(C(=O)CSc2nnc(-c3ccc(Cl)cc3)n2CC2CCCO2)c1C (stereo not drawn)	·	-23.2%
COc1ccccc1C(=O)NNC(=O)c1ccc(O)cc1	i	-7.3%
Fc1cccc(Cl)c1Cn1c(-c2cccs2)nc2ccccc21	-7.5%[7.34 µM]	-6.3%[7.34 µM]
CCC(C)n1c(SCC(=O)Nc2ccc3[nH]c(=O)[nH]c3c2)nc2ccccc2c1=O (stereo not drawn)	-26.4%	-18.2%
C=CCNC(=S)Nc1cc(Cl)ccc1OC	i	-5.5%
O=CN1CCN(C=O)C(O)C1O (stereo not drawn)	-8.7%	-5.8%
Nc1nonc1C(=O)NCCNC(=O)c1ccc(Cl)cc1	i	2.8%
CCOCCCNC(=O)C(NC(=O)c1ccc2c(c1)OCO2)c1ccccc1 (stereo not drawn)	-5.8%	2.3%
O=C(CCCN1C(=O)/C(=C\c2ccccc2)SC1=S)N1CCOCC1	?	?
O=C(CSc1nncs1)Nc1ccc(N2CCCCC2)cc1	-25.9%	-16.5%
CCc1nc(SCC(=O)NCc2ccc(F)cc2)c2c(=O)n(C)c(=O)n(C)c2n1	9.9%	2.5%
CCCCNC(=O)C[C@@H]1C[C@@]2(C(=O)OCC)CCC=C2N(CCC2=CCCCC2)C1=O	-9.8%	-23.2%
CCCN1C(=O)C(=O)N(CC(=O)N2c3ccccc3NC(=O)CC2C)C1=O (stereo not drawn)	?	?
CCOc1ccc(NC(=O)CCSc2nnc(C)s2)cc1	-16.6%	-17.7%
O=C(CN1CCOCC1)N(c1ccccc1)c1ccc2ccccc2c1	-3.9%	-8.0%
O=c1[nH]nc(Cc2ncc(C(F)(F)F)cc2Cl)c2ccccc12	i	-11.8%

(listing goes on)
SMILES	VACV mCherry inh	Vaccinia Venus
COc1ccc(OC)c(N(CC(=O)NC2CCCC2)S(=O)(=O)c2ccc(OC)c(OC)c2)c1	-8.3%	-28.3%
O=C(Nc1cccc(O)c1)c1cc2nc(-c3ccc(Br)cc3)cc(C(F)(F)F)n2n1	-5.4%	-13.3%
O=C(Cc1ccc(-n2cnnn2)cc1)NC12CC3CC(CC(C3)C1)C2	-11.9%[1.46 µM]	-25.7%
O=S1(=O)N(Cc2ccccc2)CCCN1Cc1cccc(Cl)c1	-4.9%	5.3%
Cc1ccc(-n2c(O)c(/C=N/N3CCOCC3)c(=O)[nH]c2=S)cc1	i	-12.3%
Cc1ccc(C(=O)NCC(=O)OCc2nnc(-c3ccccc3)o2)cc1	i	-19.0%
COc1ccc(OC(=O)N(C)C[C@H]2OCc3cnnn3CCCC(=O)N([C@@H](C)CO)C[C@H]2C)cc1	-0.4%	-3.7%

Gathered by group, those above with a thiophene ring, fused or not (5)
SMILES	VACV mCherry inh	Vaccinia Venus
CN(CC(O)COCc1cccs1)C1CCCCC1 (stereo not drawn)	-6.7%[1.46 µM]	-10.0%
N#Cc1nc(-c2cccs2)oc1NCCc1ccccc1	·	-26.4%
Cc1ccc(NC(=O)c2ccsc2)cc1NS(C)(=O)=O	-11.9%	-4.2%
O=C(Nc1cccc(-c2nn[nH]n2)c1)c1cccs1	-13.8%	-18.2%
Fc1cccc(Cl)c1Cn1c(-c2cccs2)nc2ccccc21	-7.5%[7.34 µM]	-6.3%[7.34 µM]

Screens as filed in PubChem BioAssay.
